From PubChem BioAssay
Mtb growth: Mycobacterium tuberculosis H37Rv growth inhibition, putative kinase inhibitor library, confirmatory dose response (AID 2842) | M. tuberculosis H37Rv growth inhibition; higher % means a stronger effect; some inactives read as strong as hits | inhibition, % at 10 µg/mL, or IC90 in µg/mL where a hit was titrated | 24,000 compounds, 5.2% hits;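 active = confirmed in a dose series; about a fifth of its hits are not listed in these tables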;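 also: bacteria incubated one week before Alamar blue readout; 0% = bacteria only wells and 100% = bacteria with high antibiotic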
Numbers without * were called inactive.

Molecule	Mtb growth
O=C(O)c1cccc(NC2=C(Cl)C(=O)N(Cc3ccccc3)C2=O)c1	-11.8%
NC(=O)c1c(NC(=O)C2CCCCC2)sc2c1CCCCC2	38.7%
Cc1cccc2sc(NNC(=O)c3cccc(F)c3)nc12	9.09µg/mL*
COc1cccc(/C=N\Nc2cn[nH]c(=O)c2Br)c1OC	-5.4%
O=C(CN1N=NC2C(=O)N(c3ccc(F)c(F)c3)C(=O)C21)Nc1cccc(F)c1 (stereo unspecified)	-18.6%
CN(C(=O)c1ccc(F)cc1)c1nnc(C23CC4CC(CC(C4)C2)C3)s1	0.2%
Cc1ccsc1-c1nc(C(N)=O)c2[nH]c(=O)n(-c3ccc(Cl)cc3)c2n1	6.8%
NC(=O)CSc1nnc(Cn2c(=O)sc3ccccc32)n1-c1ccccc1	7.9%
CCOC(=O)c1nn(-c2ccc(F)cc2)c(=O)c2c(NC(C)=O)scc12	-11.6%
Cc1ccc(C(=O)c2cn(CC(=O)Nc3ccc4c(c3)OCO4)c3ccc(C)cc3c2=O)cc1	3.2%
O=C(CSc1nnc(CNC(=O)c2ccc(F)cc2)o1)Nc1ccc2c(c1)OCCO2	-14.6%
O=C(Nc1c(C(=O)Nc2cccc(Cl)c2)oc2ccccc12)c1ccc2ccccc2c1	4.5%
Cc1cccc(NC(=O)CCn2c(=O)oc3ccccc32)c1C	-0.5%
O=C(CSc1nnc(-c2cccnc2)o1)Nc1c(Cl)cccc1Cl	-6.1%
COc1cccc(-c2nc(C(N)=O)c3[nH]c(=O)n(-c4ccccc4F)c3n2)c1OC	-3.1%
O=C(Nc1c(C(=O)Nc2ccc(F)c(F)c2)oc2ccccc12)c1ccccc1Cl	-0.7%
NC(=O)c1nc(Cl)c(Cl)c(N)c1Cl	-0.7%
Cc1ccccc1C(=O)Nc1c2c(nn1-c1ccc(F)cc1)CS(=O)C2 (stereo unspecified)	3.8%
O=C(CN1C(=O)c2ccccc2C1=O)Nc1nc2ccc3ccccc3c2s1	15.6%
Cc1cccc(Cn2c(Sc3nnc(C)s3)nc3c2c(=O)[nH]c(=O)n3C)c1	-5.0%
Cc1ccc(C)c(-c2nnc(NC(=O)CN3C(=O)CCC3=O)o2)c1	-7.8%
COC(=O)c1ccc(NC(=O)c2ccc(C(C)(C)C)cc2)cc1	-0.5%
Cc1ccc(NC(=O)C(=O)NCC2COC3(CCCC3)O2)cc1F (stereo unspecified)	0.8%
CCOc1ccc(C(=O)Nc2c(N)nc(SCC(=O)NCCOC)[nH]c2=O)cc1	-13.3%

Grouped by structure, the entries above containing a Cl atom (6)
Molecule	Mtb growth
O=C(O)c1cccc(NC2=C(Cl)C(=O)N(Cc3ccccc3)C2=O)c1	-11.8%
Cc1ccsc1-c1nc(C(N)=O)c2[nH]c(=O)n(-c3ccc(Cl)cc3)c2n1	6.8%
O=C(Nc1c(C(=O)Nc2cccc(Cl)c2)oc2ccccc12)c1ccc2ccccc2c1	4.5%
O=C(CSc1nnc(-c2cccnc2)o1)Nc1c(Cl)cccc1Cl	-6.1%
O=C(Nc1c(C(=O)Nc2ccc(F)c(F)c2)oc2ccccc12)c1ccccc1Cl	-0.7%
NC(=O)c1nc(Cl)c(Cl)c(N)c1Cl	-0.7%

Fetched one by one from the entries so far (2):
Molecule	Mtb growth
Cc1ccccc1C(=O)Nc1c2c(nn1-c1ccc(F)cc1)CS(=O)C2 (stereo unspecified)	3.8%
Cc1ccc(NC(=O)C(=O)NCC2COC3(CCCC3)O2)cc1F (stereo unspecified)	0.8%

Going on with the list:
Molecule	Mtb growth
CC1=C(C(=O)Nc2ccc(C)cc2C)C(c2ccccc2F)NC(=O)N1 (stereo unspecified)	-0.1%
Cc1cc2cc(CCNC(=O)c3cc(Cl)ccc3Cl)c(=O)[nH]c2cc1C	-5.8%
Cc1cccc(NC(=O)c2sc3nc4c(c(-c5ccc(C)o5)c3c2N)CCCC4)c1	5.8%
CC(=O)Nc1cccc(C2=CC(c3cccs3)n3ncnc3N2)c1 (stereo unspecified)	-10.2%
COc1ccccc1NC(=O)c1oc2ccccc2c1NC(=O)c1ccc(C)c(C)c1	1.6%
CCc1ccc2nc(Nc3nc4ccc(F)cc4s3)sc2c1	7.5%
Cc1cccc(OCC(=O)N2CCN(c3ncnc4c3nnn4Cc3ccccc3)CC2)c1	8.4%
COc1cccc(C(=O)N2CC(=O)Nc3ccc(Cl)cc3C2c2ccc(F)cc2)c1OC (stereo unspecified)	12.1%
O=C(COc1cccc2c1CCNC2=O)NCc1ccccc1	-9.5%
CCOC(=O)c1nn(-c2ccc(C)cc2)c(=O)c2c(NC(=O)c3ccc(OC)cc3OC)scc12	-0.4%
COCC(=O)Nc1ccc2c(c1)CC(=O)N2C	-5.2%
CCOC(=O)c1nn(-c2ccc(C)cc2)c(=O)c2c(NC(=O)C(C)C)scc12	-0.9%
Nc1ccc(C(=O)c2ccc3c(c2)OCCO3)cc1N	-15.2%
COc1cccc(-c2ccc3nnc(SCC(=O)Nc4ccc(F)c(F)c4)n3n2)c1	-14.2%
COc1ccccc1-n1c(=O)[nH]c2c(C(N)=O)nc(-c3ccc(Cl)c(Cl)c3)nc21	10.5%
Cc1c(Cl)cccc1NC(=O)CSc1ncnc2sc3c(c12)CCC(C)C3 (stereo unspecified)	-6.4%
N#Cc1c(NC(=O)Cc2ccccc2)sc2c1CCN(Cc1ccccc1)C2	14.1%
O=C(CSc1ccc(-c2ccc(-n3ccnc3)cc2)nn1)NCc1ccc(F)cc1	2.2%
COc1ccc2nc(-c3ccc(NC(=O)c4cccc(F)c4)cc3)cn2n1	7.2%
Nn1c(SCC(=O)Nc2ccc3c(c2)OCCO3)nncc1=O	59.9%
CCOCC(=O)Nc1c(C(=O)Nc2ccc3c(c2)OCCO3)oc2ccccc12	-4.1%
CC(=O)Nc1cccc(NC(=O)CSc2nnc(C)c(=O)n2N)c1	-9.5%
CC(=O)C1C(c2cccc(F)c2)NC(=O)NC1(O)C(F)(F)F (stereo unspecified)	-5.8%
Nn1c(SCC(=O)Nc2ccc(F)c(Cl)c2)nnc1-c1ccncc1	-10.6%
O=C(NCC1COC2(CCCCC2)O1)C(=O)Nc1ccc2c(c1)OCO2 (stereo unspecified)	-3.8%
O=C(CSc1ccc2nnc(-c3ccccn3)n2n1)NCc1ccccc1Cl	81.1%
Cc1ccccc1NC(=O)CSc1nc(N)c(NC(=O)c2ccc(C(F)(F)F)cc2)c(=O)[nH]1	-15.9%
O=C(Cc1ccccc1)Nc1c(C(=O)Nc2ccc3c(c2)OCCO3)oc2ccccc12	11.3%
COc1ccccc1CNC(=O)CCCc1nnc2n(C)c(=O)c3sccc3n12	-15.7%
CCOc1ccc2nc(NC(=O)c3cc4c(=O)n5cccc(C)c5nc4s3)sc2c1	1.6%
CCc1ccc(NC(=O)CSc2nnc3[nH]c(=O)c(C)c(C)n23)cc1	-11.1%
CCNS(=O)(=O)c1ccc2nc(N)sc2c1	-5.0%
CCOC(=O)c1nn(-c2ccc(C(F)(F)F)cc2)c(=O)c2c(NC(=O)c3ccc(F)c(F)c3)scc12	10.1%
CCOC(=O)c1[nH]c(C)c(C(=O)OCC)c1C	4.3%
COc1cc(CSc2ccnc3c2c(=O)n(C)c(=O)n3C)cc(OC)c1	8.0%
Oc1cccc(C2=NN3C(C2)c2cc(Cl)ccc2OC3c2ccncc2)c1 (stereo unspecified)	60.9%
COc1ccccc1/C=C/C(=O)Nc1ccc(S(=O)(=O)Nc2cc(C)on2)cc1	83.7%
CCc1cccc2sc(N(Cc3ccccn3)C(=O)c3ccc(C#N)cc3)nc12	0.4%
Cc1cc(Oc2coc3cc(OCC#N)ccc3c2=O)cc(C)c1Cl	4.0%
COC(=O)c1ccc(/C=C2\Oc3c(ccc(O)c3CN3CCCC(C)C3)C2=O)cc1 (stereo unspecified)	3.4%

A few values from the list:
CCOC(=O)c1[nH]c(C)c(C(=O)OCC)c1C in Mtb growth reads 4.3%
CCc1cccc2sc(N(Cc3ccccn3)C(=O)c3ccc(C#N)cc3)nc12 in Mtb growth reads 0.4%
COc1cc(CSc2ccnc3c2c(=O)n(C)c(=O)n3C)cc(OC)c1 in Mtb growth reads 8.0%
COC(=O)c1ccc(/C=C2\Oc3c(ccc(O)c3CN3CCCC(C)C3)C2=O)cc1 (stereo unspecified) in Mtb growth reads 3.4%
COc1ccccc1/C=C/C(=O)Nc1ccc(S(=O)(=O)Nc2cc(C)on2)cc1 in Mtb growth reads 83.7%
Oc1cccc(C2=NN3C(C2)c2cc(Cl)ccc2OC3c2ccncc2)c1 (stereo unspecified) in Mtb growth reads 60.9%
CCOC(=O)c1nn(-c2ccc(C(F)(F)F)cc2)c(=O)c2c(NC(=O)c3ccc(F)c(F)c3)scc12 in Mtb growth reads 10.1%

Going on with the list.
Molecule	Mtb growth
COc1ccccc1NC(=O)CSc1nc(N)c(NC(=O)c2cccs2)c(=O)[nH]1	-15.1%
CC(C)CCSc1nc2c(c(=O)[nH]1)C(c1ccc(N(C)C)cc1)C1=C(CCCC1=O)N2 (stereo unspecified)	0.7%
O=C(CSc1ccc2nnc(-c3ccccc3)n2n1)Nc1ccc(Br)cc1	-5.5%
O=C(Cc1n[nH]c(=O)[nH]c1=O)N/N=C/c1cccc(Br)c1	2.6%
Cc1ccccc1-c1nnc(NC(=O)c2cc(Cl)cc(Cl)c2)s1	11.1%
COc1cccc(C(=O)Nc2nnc(-c3ccc4c(c3)OCCO4)o2)c1	-8.3%
COc1ccc(-c2nc(SCC(=O)Nc3ccccc3C(F)(F)F)c3c(=O)n(C)c(=O)n(C)c3n2)cc1	-1.5%
CCN1CCN(c2nc(Nc3ccc(C)c(C)c3)c3nccnc3n2)CC1	6.1%
COC(=O)c1ccc(CSc2nc3c(cnn3-c3ccccc3OC)c(=O)[nH]2)cc1	8.2%
COc1ccc(NC(=O)c2oc3ccccc3c2NC(=O)CCCl)cc1OC	-7.0%
COc1ccc(-n2c(=O)[nH]c3c(C(N)=O)nc(-c4ccc(C)cc4)nc32)cc1OC	-1.3%
CCOc1ccc(C(=O)c2cn(Cc3ccccc3F)c3ccc(OC)cc3c2=O)cc1	4.3%
O=C(Nc1c(C(=O)Nc2ccccc2)oc2ccccc12)c1ccc2c(c1)OCO2	9.3%
COc1ccc(-c2nnc3c4ccccc4n(Cc4ccc(F)cc4)cc2-3)cc1OC	36.5%
COc1cc(OC)cc(-c2nnc(Nc3nc4ccc(OC)cc4s3)o2)c1	40.0%
COc1ccc(C2=Nn3c(nnc3-c3ccc(OC)cc3)SC2)cc1	66.6%

Gathered by group: the entries above containing a CF3 group (4)
Molecule	Mtb growth
CC(=O)C1C(c2cccc(F)c2)NC(=O)NC1(O)C(F)(F)F (stereo unspecified)	-5.8%
Cc1ccccc1NC(=O)CSc1nc(N)c(NC(=O)c2ccc(C(F)(F)F)cc2)c(=O)[nH]1	-15.9%
CCOC(=O)c1nn(-c2ccc(C(F)(F)F)cc2)c(=O)c2c(NC(=O)c3ccc(F)c(F)c3)scc12	10.1%
COc1ccc(-c2nc(SCC(=O)Nc3ccccc3C(F)(F)F)c3c(=O)n(C)c(=O)n(C)c3n2)cc1	-1.5%

New compounds follow:
Molecule	Mtb growth
CCOc1ccc2nc(NC(=O)c3cc(-c4ccccc4)nc4ccccc34)sc2c1	72.1%
CCOc1ccc(C(=O)Nc2ccc3c(c2)N(C(C)=O)CCC3)cc1	9.0%
CCc1ccc(NC(=O)CSc2nc3c(c(=O)n2-c2ccc(Cl)cc2)SCC3)cc1	4.2%
O=C(Nc1nnc(-c2cc(Cl)ccc2Cl)o1)c1ccc(S(=O)(=O)N2CCOCC2)cc1	3.86µg/mL*
CC(=O)N1CCc2c(sc(NC(=O)c3cccc(N4C(=O)CCC4=O)c3)c2C(N)=O)C1	-5.8%
O=C(Nc1ccc2c(c1)C(=O)NC2=O)c1ccccc1Cl	-10.3%
O=c1c(=O)n(-c2cccc3ccccc23)ccn1Cc1ccccc1F	-2.9%
O=C1Nc2ccc(S(=O)(=O)Nc3ccc(O)c(Cl)c3)c3cccc1c23	8.3%
CCOc1ccccc1/C=N/NC(=O)c1n[nH]c2c1CCC2	9.4%
CC(=O)Nc1ccc(NC(=O)N(c2ccccc2)c2ccccc2)cc1	-10.5%
Nc1nc(SCCO)[nH]c(=O)c1NC(=O)c1ccccc1	-0.7%
CCc1nnc(NC(=O)CSc2ccc(-c3ccc(-n4ccnc4)cc3)nn2)s1	1.3%
Cn1c(=O)c2c(SCC(=O)Nc3cccc(F)c3)nc(-c3ccc([N+](=O)[O-])cc3)nc2n(C)c1=O	-2.9%
O=c1[nH]cc(S(=O)(=O)Nc2ccc(OC(F)(F)F)cc2)c(=O)[nH]1	-12.5%
O=C(CCc1ccccc1)Nc1nnc(-c2cc(Cl)ccc2Cl)o1	26.6µg/mL*
COc1ccc(CCN2CCCn3c2nc2c3c(=O)[nH]c(=O)n2C)cc1OC	-15.9%
CCOc1ccc2nc(SC3CC(=O)N(c4ccc(N5CCCCC5)cc4)C3=O)sc2c1 (stereo unspecified)	24.8µg/mL*
Cc1ccc2cc(CCNC(=S)Nc3ccccc3Cl)c(=O)[nH]c2c1C	15.4%
O=C1c2ccccc2C(=O)c2cc(S(=O)(=O)Nc3ccc(F)cc3)ccc21	13.3%
Nn1c(SCC(=O)Nc2c(Cl)cccc2Cl)nncc1=O	0.0%
COc1ccc(/C=N/Nc2cn[nH]c(=O)n2)cc1[N+](=O)[O-]	-5.1%

The list is partial, so the mix of outcomes need not match the whole.
